# FGF22 binding = binders of human FGF22 protein, primary screen, FGF22 synaptogenesis inhibitor project, biophysical, thermal shift, single point; Fibroblast growth factor 22 (Homo sapiens), Q9HCT0; recombinant FGF22 thermal shift, SYPRO orange fluorescence; percent of sucrose octasulfate shift, DMSO zero; calls only at 9.99 µM; 340,000 compounds, 1.5% hits; AID 651658, 2012;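 active = melting point raised past a set limit in the mean and every replicate; three in four hits are not shown here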
# Target sequence (Q9HCT0 whole entry, looked up): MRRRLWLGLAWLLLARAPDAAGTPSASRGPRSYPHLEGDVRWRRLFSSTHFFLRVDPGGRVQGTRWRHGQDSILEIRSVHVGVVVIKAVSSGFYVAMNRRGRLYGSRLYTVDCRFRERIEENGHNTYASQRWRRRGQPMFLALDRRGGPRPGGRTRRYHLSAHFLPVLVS
# AF4-AF9 inh = inhibitors of AF4 peptide binding to AF9, primary screen, biochemical, AlphaScreen, biotin-AF4 peptide, FLAG-AF9, single point | inhibition, % at 10 µM | Protein AF-9 (Homo sapiens), P42568 | 350,000 compounds, 0.47% hits;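 active = every replicate reaching a set inhibition limit, whatever the replicate mean, cut at about 25% in these data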;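 also: 0% = plate neutral control median and 100% = total signal loss; the record names both 10 and 1 µM as test concentration; the first replicate is given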
# Target sequence (P42568 whole entry, looked up): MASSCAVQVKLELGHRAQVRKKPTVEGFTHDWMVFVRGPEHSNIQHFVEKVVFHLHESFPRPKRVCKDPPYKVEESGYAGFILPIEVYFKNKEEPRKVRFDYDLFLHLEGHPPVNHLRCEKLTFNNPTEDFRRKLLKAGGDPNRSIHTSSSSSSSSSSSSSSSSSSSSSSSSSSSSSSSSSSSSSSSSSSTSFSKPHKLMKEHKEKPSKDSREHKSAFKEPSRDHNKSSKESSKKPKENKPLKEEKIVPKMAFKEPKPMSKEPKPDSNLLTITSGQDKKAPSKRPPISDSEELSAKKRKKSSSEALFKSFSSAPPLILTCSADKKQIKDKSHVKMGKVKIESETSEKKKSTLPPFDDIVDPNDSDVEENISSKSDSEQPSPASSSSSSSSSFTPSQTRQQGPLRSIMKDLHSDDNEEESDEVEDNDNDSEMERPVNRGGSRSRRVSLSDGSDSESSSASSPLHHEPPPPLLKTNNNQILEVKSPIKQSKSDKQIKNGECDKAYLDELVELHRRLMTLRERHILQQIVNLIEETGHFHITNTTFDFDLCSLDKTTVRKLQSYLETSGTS
# rRNA inh HTS = reduced GFP signal of wild-type E. coli, primary screen, bacterial rRNA inhibitor project, GFP/RFP fluorescence, OD600, single point | E. coli WT GFP vs humanized-ribosome RFP mutants, 24 h; stronger effect = lower value; DMSO median 0, no signal -100 | GFP signal change (wild-type ribosome), % (concentration not given with the values) | 350,000 compounds, 1.6% hits | AID 720706, 2013;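 active = significant combined selectivity score with lowered wild-type GFP, culture density cut under 30%, mutant RFP and density less affected; inactive = any of these conditions unmet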; also: one replicate is shown; some compounds called inactive have numbers as strong as hits
# rRNA inh HTS OD600 = further read-out of rRNA inh HTS, marked with its call; OD600 change, %; measured here: OD600 growth;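 optical density of the mix in the first replicate; 0 = DMSO median and -100 = no signal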
# rRNA inh HTS RFP = second read-out of rRNA inh HTS, no call of its own (marks repeat the call); RFP signal change, %; measured here: RFP humanized mutant strains;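 first replicate; 0 = DMSO median and -100 = no signal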
# Active calls of the source: *; i = inactive; + = active, no number; & = joins results of further samples. Some of the compounds tested; rates above refer to the full screens.
no.	compound	rRNA inh HTS OD600	AF4-AF9 inh	FGF22 binding	rRNA inh HTS	rRNA inh HTS RFP
1	C[C@@H]1CN([C@@H](C)CO)C(=O)c2cc(NS(=O)(=O)c3cn(C)cn3)ccc2O[C@H]1CN(C)Cc1ccccc1	7	-1.0	i	5	-0.3
2	CCN1CCN(c2nc3c(c(=O)[nH]c(=O)n3C)n2Cc2cccc(C)c2)CC1	16	0.0	i	13	0.1
3	Cc1cccc(C)c1-n1nnnc1C1(C)CCC(=O)N1CCOc1ccccc1 (centres undefined)	-18	-1.1	i	-2	4.8
4	O=C(C[C@H]1C=C[C@@H](NC(=O)C2CCC2)[C@H](CO)O1)NC1CCCCC1	12	-12	i	3	-3.3
5	CN(C)CC(=O)N1[C@H](C#N)[C@@H](c2ccc(-c3ccc(C(=O)N(C)C)cc3)cc2)[C@@H]1CO	4	-0.3	i	1	1.5
6	COC(=O)c1ccc(CCc2cc(O)c(Br)cc2O)cc1	4.9*	-3.1	i	-19*	3.5*
7	CC(C)(C)[S@@](=O)N1Cc2cc(C(=O)NCCN3CCCCC3)nc(-c3cccc(-c4ccc(C#N)cc4)c3)c2[C@H]1CCO	1	-0.7	i	1	3.8
8	Cc1ccc2c(c1)CCCO[C@]21O[C@H](CCO)C[C@H](O)[C@H]1O	8	-1.6	i	0	-2.4
9	CC(C)CN1C(=O)CSCC1(C)C(=O)NC(C)C (centres undefined)	12	-0.6	i	10	1.2
10	C[C@H]1CN([C@@H](C)CO)C(=O)c2cccc(NC(=O)Nc3ccc4c(c3)OCO4)c2O[C@@H]1CN(C)Cc1ccc(C(=O)O)cc1	3	0.9	i	2	-1.1
11	C[C@H]1CN([C@@H](C)CO)C(=O)c2cccc(NC(=O)Nc3cccc4ccccc34)c2O[C@H]1CN(C)Cc1ccc(Cl)c(Cl)c1	4	3.1	i	4	5.1
12	C[C@H](CO)N1C[C@H](C)[C@H](CN(C)Cc2ccccc2)Oc2c(NS(=O)(=O)c3ccc(F)cc3)cccc2C1=O	-2	-0.8	i	-2	3.8
13	C[C@@H]1CCCCO[C@@H](CN(C)Cc2ccncc2)[C@@H](C)CN([C@H](C)CO)C(=O)c2cc(NC(=O)Nc3cccc4ccccc34)ccc2O1	1	-2.9	i	2	0.1
14	CNC(=O)C[C@@H]1CC[C@@H]2[C@@H](COc3ccc(NC(=O)c4cccc(F)c4)cc3C(=O)N2C)O1	12	-0.8&0.7	i	6	0.7
15	C[C@@H]1CN([C@H](C)CO)C(=O)c2cc(NC(=O)c3ccccc3)ccc2O[C@@H](C)CCCCO[C@H]1CN(C)Cc1ccc2c(c1)OCO2	-1	6.7	i	2	-0.2
16	O=C(C[C@@H]1C=C[C@H](NS(=O)(=O)c2ccc(F)cc2)[C@@H](CO)O1)NC1CCCCC1	-3	-1.6	i	1	0.2
17	O=C(Cc1ccccn1)N1CC(=O)N2[C@H](CO)[C@@H](c3ccc(C#CCC4CCCC4)cc3)[C@@H]2C1	-60	9.9	i	-38	9.1
18	CN1C(=O)CCS(=O)(=O)C1c1ccc(Cl)c(Cl)c1 (centres undefined)	5	-1.0	i	10	-0.7
19	C[C@H](CO)N1C[C@H](C)[C@H](CN(C)C(=O)CC2CC2)Oc2ncc(C#CC3(O)CCCC3)cc2C1=O	8	-4.0	+	3	-3.3
20	C[C@@H]1CCCCO[C@@H](CN(C)C(=O)Nc2cccc3ccccc23)[C@H](C)CN([C@H](C)CO)C(=O)c2cc(NC(=O)Nc3ccc(F)cc3)ccc2O1	4	1.1	i	3	2.8
21	CN(C)CC(=O)Nc1ccc2c(c1)[C@@H]1C[C@@H](CC(=O)N3CCc4ccccc4C3)O[C@@H](CO)[C@@H]1O2	-4	1.8	i	0	0.9
22	Cc1nc(C(=O)N2CCCC(N3CCN(c4ccc(F)cc4)CC3)C2)cs1 (centres undefined)	5	0.2	i	-1	-0.9
23	Cc1noc(C)c1S(=O)(=O)Nc1ccc2c(c1)C(=O)N([C@@H](C)CO)C[C@H](C)[C@H](CN(C)S(=O)(=O)c1ccccc1)OCCCC[C@@H](C)O2	-9	0.7	i	2	-1.0
24	COCC#Cc1cnc2c(c1)C(=O)N([C@H](C)CO)C[C@H](C)[C@@H](CN(C)C(=O)Nc1cccc(F)c1)O2	0	-2.3	i	2	-3.4
25	COCC(=O)N1CC[C@H]2[C@H](CO)Nc3ccc(-c4ccc(C(=O)N(C)C)cc4)cc3[C@H]21	8	-2.4	i	2	1.8

# Ordered by number of heavy atoms (ascending): six of the compounds above
no.	compound	rRNA inh HTS OD600	AF4-AF9 inh	FGF22 binding	rRNA inh HTS	rRNA inh HTS RFP
16	O=C(C[C@@H]1C=C[C@H](NS(=O)(=O)c2ccc(F)cc2)[C@@H](CO)O1)NC1CCCCC1	-3	-1.6	i	1	0.2
5	CN(C)CC(=O)N1[C@H](C#N)[C@@H](c2ccc(-c3ccc(C(=O)N(C)C)cc3)cc2)[C@@H]1CO	4	-0.3	i	1	1.5
14	CNC(=O)C[C@@H]1CC[C@@H]2[C@@H](COc3ccc(NC(=O)c4cccc(F)c4)cc3C(=O)N2C)O1	12	-0.8&0.7	i	6	0.7
7	CC(C)(C)[S@@](=O)N1Cc2cc(C(=O)NCCN3CCCCC3)nc(-c3cccc(-c4ccc(C#N)cc4)c3)c2[C@H]1CCO	1	-0.7	i	1	3.8
15	C[C@@H]1CN([C@H](C)CO)C(=O)c2cc(NC(=O)c3ccccc3)ccc2O[C@@H](C)CCCCO[C@H]1CN(C)Cc1ccc2c(c1)OCO2	-1	6.7	i	2	-0.2
23	Cc1noc(C)c1S(=O)(=O)Nc1ccc2c(c1)C(=O)N([C@@H](C)CO)C[C@H](C)[C@H](CN(C)S(=O)(=O)c1ccccc1)OCCCC[C@@H](C)O2	-9	0.7	i	2	-1.0

# Going on with the list.
no.	compound	rRNA inh HTS OD600	AF4-AF9 inh	FGF22 binding	rRNA inh HTS	rRNA inh HTS RFP
26	CO[C@H]1CN(C)C(=O)c2cc(NC(C)=O)ccc2OC[C@H](C)N(C(=O)C2CCOCC2)C[C@@H]1C	0	-2.5	i	0	-1.6
27	Cc1noc(C)c1NC(=O)Nc1ccc2c(c1)C(=O)N([C@H](C)CO)C[C@H](C)[C@H](CN(C)Cc1ccncc1)OCCCC[C@@H](C)O2	9&9	2.0&-5.1	i	18&3	2.5&0.0
28	C[C@@H]1CCCCO[C@@H](CN(C)S(C)(=O)=O)[C@H](C)CN([C@H](C)CO)C(=O)c2cc(NC(=O)c3ccccc3)ccc2O1	-1	-14	i	1	0.1
29	C[C@@H]1CN([C@@H](C)CO)C(=O)Cc2cc(NC(=O)Nc3ccc(F)cc3)ccc2O[C@@H]1CN(C)S(=O)(=O)c1ccc(Cl)cc1	5	1.3	i	1	1.9
30	C[C@@H]1CN([C@H](C)CO)C(=O)c2cc(-c3ccccc3)cnc2O[C@H]1CN(C)C	8	-2.6	i	4	0.2
31	COc1ccc(OC)c(CN(CC(C)C)S(=O)(=O)c2ccccc2Br)c1	-17	1.9	i	0	4.1
32	CC(C)NC(=O)N(C)C[C@@H]1OCCCC[C@H](C)Oc2ccc(NC(=O)C3CCCCC3)cc2C(=O)N([C@H](C)CO)C[C@@H]1C	4	-1.4	i	-1	0.2
33	COc1ccc(CN(C)C[C@@H]2OCCCC[C@H](C)Oc3ccc(NS(=O)(=O)c4cccs4)cc3C(=O)N([C@H](C)CO)C[C@@H]2C)cc1	-8	5.3	i	2	1.8
34	CN1[C@@H]2c3ccc(-c4ccccc4F)c(=O)n3C[C@H]1[C@H](CO)[C@H]2C(=O)NCc1ccccn1	4	0.4	i	0	-0.2
35	CCCC#Cc1cnc2c(c1)C(=O)N([C@H](C)CO)C[C@H](C)[C@H](CN(C)S(=O)(=O)c1cccc(OC)c1)O2	4	6.1	i	2	7.9
36	CCc1nc2ccc(C(=O)Nc3ccc4c(c3)OCC(=O)N4)cn2c1N(CC)CCOC	-2	2.5	i	-5	-1.7
37	C[C@H]1CN([C@@H](C)CO)S(=O)(=O)c2ccc(C3=CCCCC3)cc2O[C@@H]1CN(C)C(=O)c1ccncc1	-1	1.7	i	-2	-5.6
38	CC(C)NC(=O)N(C)C[C@H]1Oc2ncc(-c3cccc(C#N)c3)cc2C(=O)N([C@H](C)CO)C[C@H]1C	-6	-6.1	i	11	-1.5
39	ON=C1c2ccccc2-c2ccc(Br)cc21	2	10	i	-1	-2.5
40	O=C(NCC[C@H]1CC[C@@H](NS(=O)(=O)Cc2ccccc2)[C@H](CO)O1)C1CCOCC1	6	-2.2	i	5	-2.0
41	CCC(=O)Nc1ccc2c(c1)C(=O)N(C)C[C@H](OC)[C@@H](C)CN(C(=O)Cc1cccnc1)[C@H](C)CO2	3	-3.4	i	5	0.3
42	COc1ccc(CN(C)C[C@H]2OCCCC[C@H](C)Oc3ccc(NC(=O)Nc4ccc(OC)cc4)cc3C(=O)N([C@@H](C)CO)C[C@@H]2C)cc1	-19	0.9	i	8	17
43	COc1cccc(C#Cc2ccc3c(c2)O[C@@H](CN(C)C(C)=O)[C@H](C)CN([C@@H](C)CO)S3(=O)=O)c1	-40	0.0	i	-14	10
44	C[C@H]1CN([C@@H](C)CO)C(=O)Cc2cc(NC(=O)Nc3cccc4ccccc34)ccc2O[C@@H]1CN(C)C(=O)NC1CCCCC1	-6	1.8	i	-3	-2.0
45	CO[C@@H]1CN(C)C(=O)c2ccc(NC(=O)CC(F)(F)F)cc2OC[C@H](C)N(C(=O)c2ccccc2F)C[C@H]1C	-2	-2.6	i	1	4.8
46	OC[C@@H]1[C@@H](c2ccccc2)C2(CN(Cc3ccc4c(c3)OCO4)C2)N1Cc1ccccc1	2	14	i	-11	7.9
47	Cc1ccc(-c2ccc3c(c2)O[C@@H](CN(C)Cc2ccncc2)[C@H](C)CN([C@H](C)CO)S3(=O)=O)cc1	-34	0.5	i	-14	11
48	O=C(Cc1ccccn1)NCC[C@H]1CC[C@@H](NS(=O)(=O)c2ccc(F)cc2)[C@H](CO)O1	0	-2.3	i	1	0.1
49	C[C@@H]1CN([C@H](C)CO)C(=O)CCCn2nncc2CO[C@@H]1CN(C)Cc1ccccc1	8	0.6	i	-1	-4.4
50	C[C@H](CO)N1C[C@H](C)[C@H](CN(C)C(=O)Nc2ccc3c(c2)OCO3)Oc2ccc(N(C)C)cc2CC1=O	8	-1.1	i	5	2.2
51	COC(=O)[C@]12C[C@H](CC(=O)NCc3cccs3)C(=O)N(Cc3ccccc3)C1=C[C@H](C(C)(C)C)O[C@@H]2C	-9	2.3	i	-1	0.9
52	O=C(C[C@H]1CC[C@@H]2[C@H](COC[C@@H](O)CN2Cc2cccc(F)c2)O1)NCc1ccncc1	8	-4.4	i	3	-3.8
53	C[C@@H]1CN([C@H](C)CO)C(=O)Cc2cc(NS(=O)(=O)c3cccs3)ccc2O[C@@H]1CN(C)S(=O)(=O)c1ccccc1	-12	-3.0	i	-1	-2.0
54	Cc1ccsc1C(=O)N1CCC1(C)C(=O)NCC(C)(C)C (centres undefined)	8	-1.4	i	9	4.2
55	O=C(C[C@H]1C[C@@H]2c3cc(NC(=O)C4CCC4)ccc3O[C@@H]2[C@H](CO)O1)NCc1cccc(F)c1	-6	0.4	i	-3	-2.6
56	O=C1NC[C@H](CCCCN2C[C@H](Cc3ccccc3)N(CCc3ccc(O)cc3)C(=O)C2=O)N(CC2CCCCC2)C1=O	-22*	0.9	i	-30*	3.5*
57	CNC[C@@H]1Oc2c(NS(=O)(=O)c3c(C)noc3C)cccc2C(=O)N([C@H](C)CO)C[C@H]1C	8	-3.7	i	4	1.1
58	O=C(Nc1cccc(C(=O)O)c1)/C(=C\c1cccc([N+](=O)[O-])c1)NC(=O)c1ccc(Br)cc1	22	-5.0	i	22	0.9
59	COc1ccc(S(=O)(=O)N[C@H]2CC[C@H](CC(=O)N3CCc4ccccc4C3)O[C@H]2CO)cc1	-5	0.2	i	-1	-2.1
60	O=C(C[C@@H]1C[C@@H]2c3cc(NS(=O)(=O)c4ccccc4)ccc3O[C@@H]2[C@H](CO)O1)N1CCOCC1	6	1.1	i	8	0.0
61	CCC(=O)N(C)C[C@@H]1[C@@H](c2ccccc2)[C@H](CO)N1Cc1cccnc1	7	-3.3	i	1	0.3
62	Cc1noc(C)c1S(=O)(=O)Nc1ccc2c(c1)C(=O)N([C@H](C)CO)C[C@@H](C)[C@@H](CN(C)Cc1ccc(C(F)(F)F)cc1)OCCCC[C@@H](C)O2	-10	-2.3	i	-2	2.4
63	O=C(Cc1cccnc1)N[C@H]1CC[C@@H](CCn2cc(-c3ccccc3F)nn2)O[C@H]1CO	-1	-2.5	i	0	-2.8
64	C[C@@H]1CN([C@H](C)CO)C(=O)c2cc(C3=CCCCC3)cnc2O[C@H]1CN(C)C(=O)NC1CCCC1	3	-1.4	i	-2	-4.5
65	CCOC(=O)C1CCCN(C(=O)c2cc(C)oc2C)CC1 (centres undefined)	9	-1.1	i	4	-1.3
